Source: PubChem (several laboratories)
MT1-MMP act inh: MT1-MMP (human) activation inhibition. P50281. HT1080 RFP-PRO-GFP cells, GFP/RFP ratio fluorescence, overnight; percent of plate control window, DMSO zero. GFP/RFP ratio change, % at 20 µM. actives 0.061% (n = 360,000);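 active = GFP/RFP ratio change of at least 30% with cell ATP level not reduced by more than half and red fluorescence within 50% of control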; also: strong numbers were not always called active
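Read-out: GFP/RFP fluorescence ratio; Test system: RFP-PRO-GFP reporter HT1080 cells; Compound dosing: single-point 20 µM compound, 1% DMSO; Times: overnight compound exposure at 37 °C.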
HIV Env fusion: blocks HIV Env-driven cell-cell fusion; HeLa-JRFL Env/CEM21 cell fusion, luciferase; inhibition, % at 12.3 µM; actives 1.1% (n = 360,000); AID 651610;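 active = mean replicate inhibition score of at least 50 and every replicate individually at or above 50; inconclusive = only one of the two criteria met; inactive = mean below 50 and not all replicates reaching 50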;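 also: 0% = plate neutral controls and 100% = maraviroc near 300 nM; one replicate is shown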
PABP polyA inh: PABP-poly(A) binding inhibition; P11940; PABP-poly(A) RNA binding, fluorescence polarization; inhibition, % at 35 µM; actives 1% (n = 290,000); AID 2014;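 active = 50% or more with normal probe brightness, or confirmed in later tests; inconclusive = above 50% with abnormal brightness, or retests that disagree; inactive = below 50% or failed in later tests; about a fifth of its hits are not listed in these tables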;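 also: calls also rest on retests at 20 µM and on dose response follow-up; controls were probe without protein and protein plus probe with vehicle; some compounds called inactive have numbers as strong as hits; many hits fall short of the cut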
Target sequence (P11940 whole entry, looked up): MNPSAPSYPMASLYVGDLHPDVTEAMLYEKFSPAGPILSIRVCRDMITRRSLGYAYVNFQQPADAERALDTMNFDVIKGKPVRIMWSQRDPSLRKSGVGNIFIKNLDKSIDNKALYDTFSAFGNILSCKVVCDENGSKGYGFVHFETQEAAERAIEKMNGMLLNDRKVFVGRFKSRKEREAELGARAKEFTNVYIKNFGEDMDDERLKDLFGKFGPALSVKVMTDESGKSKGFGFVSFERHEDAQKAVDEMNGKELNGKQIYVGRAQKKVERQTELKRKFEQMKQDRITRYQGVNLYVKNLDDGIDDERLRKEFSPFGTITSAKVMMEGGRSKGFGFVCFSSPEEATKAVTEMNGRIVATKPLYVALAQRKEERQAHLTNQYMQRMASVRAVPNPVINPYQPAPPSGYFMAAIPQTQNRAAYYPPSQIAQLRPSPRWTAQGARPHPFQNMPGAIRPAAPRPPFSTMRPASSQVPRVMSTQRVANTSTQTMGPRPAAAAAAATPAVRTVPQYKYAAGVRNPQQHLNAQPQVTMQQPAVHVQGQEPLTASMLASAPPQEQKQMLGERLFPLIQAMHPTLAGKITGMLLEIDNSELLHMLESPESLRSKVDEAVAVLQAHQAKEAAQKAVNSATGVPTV
eIF4H FP inh: inhibitors of RNA binding by human eIF4H; Q15056; eIF4H fluorescence polarization binding assay; inhibition, % at 35 µM; actives 0.94% (n = 290,000); AID 2012;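 active = 50% or more with normal probe brightness, or confirmed in later tests; inconclusive = above 50% with abnormal brightness, or retests that disagree; inactive = below 50% or failed in later tests; about a fifth of its hits are not listed in these tables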;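 also: calls also rest on retests at 20 µM and on dose response follow-up; 0% = protein and probe with vehicle and 100% = probe without protein; strong numbers were not always called active; many hits fall short of the cut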
Rce1 inhib: yeast Ras-converting enzyme inhibition; calls only; yeast membranes, quenched prenylated peptide cleavage fluorescence; Q03530; actives 0.27% (n = 290,000);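 active = fall in fluorescence gain of 50% or more versus controls, with final raw signal at or below 3038400; inconclusive = same 50% fall but final raw signal above 3038400; inactive = fall in fluorescence gain under 50%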;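 also: plate controls were neutral control wells for no effect and wells lacking membranes for full effect; tested at 10 µM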
UUG fidelity: modulators of start codon recognition fidelity in yeast; actives 0.13% (n = 350,000); activity score, % at 18.7 µM; AID 602363; S. cerevisiae UUG-firefly luciferase reporter, luminescence/redox ratio;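 active = replicate mean at a twofold rise or more, about +100% in these data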;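 also: firefly luciferase made from a UUG start codon reports start codon fidelity; reporter light over untreated wells divided by growth signal over untreated wells; some hits fall short of that in this replicate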
CSC inhib: blocks cancer stem cells; cancer stem cell-like cells viability, luminescence; inhibition, % at 7.5 µM; actives 1.1% (n = 300,000); AID 2717;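 active = mean at 75% or more and at least half the replicates too; inconclusive = mean and replicates disagree; tested in HMLE shEcad cells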;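 also: 0% = median of negative and 100% = median of positive control wells; the first replicate is given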
MT1-MMP act inh RFP: recorded beside MT1-MMP act inh, whose call it bears; RFP signal change, %; measured here: RFP expression control read;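 0 = vehicle wells; hits needed this value within 50% of zero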
Active calls of the source: *; i = inactive; ? = inconclusive; · = no result given.

SMILES	MT1-MMP act inh	MT1-MMP act inh RFP	HIV Env fusion	PABP polyA inh	eIF4H FP inh	Rce1 inhib	UUG fidelity	CSC inhib
CCOC(=O)N1CCN(C(=O)c2ccc3c(SCC(=O)O)c4c(nc3c2)CCC4)CC1	-2	7	-24	12	-2	i	4	-10
C[C@H](NC(=O)[C@@H]1Cc2ccccc2CN1C(=O)OC(C)(C)C)C(=O)NC1CCCCC1	-2	1	-2	2	11	i	-7	-2
COC(=O)c1ccc(OCC(=O)c2ccc(O)cc2O)cc1	4	-1	-28	6	0	i	-4	-4
CCN(CC)C(=O)c1sc(NC(=O)c2ccncc2)c(C(=O)OC)c1C	1	1	27	8	-4	i	·	-11
Cc1ccc(S(=O)(=O)N2CCCC2C(=O)Nc2nc3ccccc3s2)cc1 (stereo not given)	9	-10	·	-2	-5	i	-15	·
Cn1c(NCCN2CCOCC2)nc2c1c(=O)n(Cc1cccc(Cl)c1)c(=O)n2C	6	4	·	-10	-4	i	11	-5
O=C(NCCCN1CCOCC1)c1ccc(S(=O)(=O)Nc2cccc(C(F)(F)F)c2)cc1	2	-1	-12	·	·	i	-20	49
Cc1nc2c(=O)[nH]c(=S)n(C)c2nc1C	1	4	9	10	6	i	·	-10
CC(C)c1ccc(NC(=O)CSc2nnc(CN3CCOCC3)n2C)cc1	0	-1	8	-3	-8	i	1	3
Clc1cccc(-c2nnc(-c3ccccc3)o2)c1	3	-2	·	-3	-17	i	-33	20
COc1cccc(C(c2nnnn2CS(=O)(=O)c2ccc(C)cc2)N2CCN(C)CC2)c1OC (stereo not given)	-2	0	-17	0	0	i	-6	-9
O=C(Nc1cccc(Br)c1)c1ccn[nH]1	3	1	-282	-2	-6	i	5	-3
CCOC(=O)[C@H]1[C@H]2COc3ccc(OC)cc3[C@@H]2N2C(=O)c3cc(C)ccc3NC(=O)[C@@]12C	8	3	-48	·	·	·	-7	-23
COc1ccc(Cc2nnc3sc(SCC(=O)Nc4ccccc4)nn3c2=O)cc1OC	0	5	10	·	·	i	-9	11
COc1ccc(NC(=O)C2(C)Cc3c(-c4ccc(NC(C)=O)cc4)ccnc3O2)cn1 (stereo not given)	-4	1	-14	·	·	·	-8	·
CC1(C)CC(=O)C(C2NCCc3ccccc32)=C(O)C1 (stereo not given)	0	5	·	-4	0	i	-10	-8
COc1ccc2c(COC(=O)CNS(=O)(=O)c3ccccc3)cc(=O)oc2c1	2	3	-1	·	·	·	-6	10
CC(=O)Nc1ccc(S(=O)(=O)Nc2cccc3[nH]ncc23)cc1	-3	2	0	-3	6	i	·	·
COc1ccc(C(=O)NCc2nnc(SCC(=O)N3CCCC3)o2)cc1	2	0	-12	2	-6	i	-7	1
O=C(NC1CCCCCCC1)c1cccnc1	1	1	-20	3	-1	i	-8	-7
C/C(=N\Nc1cc(C)nc(NCc2ccccc2)n1)c1ccc([N+](=O)[O-])cc1	3	-15	5	-7	1	i	6	0
CCOC(=O)C1(Cc2cccc(Cl)c2)CCCN(C2CCN(C(C)=O)CC2)C1 (stereo not given)	-12	3	35	-2	-5	i	1	9
O=C(O)c1nc2ccccc2nc1C(=O)O	5	12	-235	-5	2	i	-2	-10
O=Cc1ccc2c(c1)OCCOCCOCCOCCO2	0	0	-20	·	·	·	-13	·
Cc1cc(=O)n2nc(N3CCC(C(=O)NCCc4ccccc4)CC3)sc2n1	9	6	·	16	-4	i	-11	11

Shown with two lines to a compound: entries from further up.
Every second line gives: MT1-MMP act inh, MT1-MMP act inh RFP, HIV Env fusion, PABP polyA inh, eIF4H FP inh, Rce1 inhib, UUG fidelity, CSC inhib
COc1ccc(NC(=O)C2(C)Cc3c(-c4ccc(NC(C)=O)cc4)ccnc3O2)cn1 (stereo not given)
 : -4, 1, -14, ·, ·, ·, -8, ·
CC1(C)CC(=O)C(C2NCCc3ccccc32)=C(O)C1 (stereo not given)
 : 0, 5, ·, -4, 0, i, -10, -8
COc1ccc2c(COC(=O)CNS(=O)(=O)c3ccccc3)cc(=O)oc2c1
 : 2, 3, -1, ·, ·, ·, -6, 10
CC(=O)Nc1ccc(S(=O)(=O)Nc2cccc3[nH]ncc23)cc1
 : -3, 2, 0, -3, 6, i, ·, ·
COc1ccc(C(=O)NCc2nnc(SCC(=O)N3CCCC3)o2)cc1
 : 2, 0, -12, 2, -6, i, -7, 1
O=C(NC1CCCCCCC1)c1cccnc1
 : 1, 1, -20, 3, -1, i, -8, -7
C/C(=N\Nc1cc(C)nc(NCc2ccccc2)n1)c1ccc([N+](=O)[O-])cc1
 : 3, -15, 5, -7, 1, i, 6, 0
CCOC(=O)C1(Cc2cccc(Cl)c2)CCCN(C2CCN(C(C)=O)CC2)C1 (stereo not given)
 : -12, 3, 35, -2, -5, i, 1, 9
O=C(O)c1nc2ccccc2nc1C(=O)O
 : 5, 12, -235, -5, 2, i, -2, -10
O=Cc1ccc2c(c1)OCCOCCOCCOCCO2
 : 0, 0, -20, ·, ·, ·, -13, ·
Cc1cc(=O)n2nc(N3CCC(C(=O)NCCc4ccccc4)CC3)sc2n1
 : 9, 6, ·, 16, -4, i, -11, 11

More results:
SMILES	MT1-MMP act inh	MT1-MMP act inh RFP	HIV Env fusion	PABP polyA inh	eIF4H FP inh	Rce1 inhib	UUG fidelity	CSC inhib
CCN(Cc1ccccc1)C(=O)Cn1cnc2c1c(=O)n(C)c(=O)n2C	-3	2	-71	-9	-4	i	-5	-15
CCOC(=O)C1=CC[C@]2(C)c3c(c4ccccc4n3C)C(=O)C1N2C	-2	3	-3	·	·	·	-16	10
Cc1nc2ccc(NS(=O)(=O)c3ccccc3Cl)cc2s1	-4	-9	·	·	·	·	-3	2
CSc1ncccc1C(=O)OCc1ccc([N+](=O)[O-])cc1	-4	-2	-16	-23	-15	i	-10	·
CCOc1ccc(C(C)NC(=O)c2ccccc2OCc2c(C)noc2C)cc1OCC (stereo not given)	2	-1	·	-14	-9	i	-3	-9
O=C(Nc1ccc(N2CCN(C(=O)c3ccco3)CC2)c(Cl)c1)c1cccnc1	-1	-5	19	-10	-8	i	-12	-22
COc1cc(Nc2nnc(C)s2)c(Cl)cc1Cl	0	-5	-78	-6	6	i	-19	11
CC1(C)C(c2ccccc2)=NC(c2ccc(F)cc2)N1O (stereo not given)	2	1	·	-3	-3	i	-8	-9
Cc1ccc(/C=C2\SC(=S)N(CCC(=O)NNC(=O)c3ccncc3)C2=O)cc1	8	9	5	1	7	i	-23	0
OC(CN1C2=NCCCN2c2ccccc21)c1ccc(Br)cc1 (stereo not given)	-2	1	·	-3	-9	i	·	4
CCOC(=O)c1sc(=NC(=O)CCS(=O)(=O)c2ccccc2)n(C)c1C	2	-1	6	-5	-7	i	·	-11
CCCCOc1cccc(C(=O)NC(=S)Nc2cccnc2)c1	-5	-1	24	-4	0	i	-1	-11
COc1cc2c(cc1OC)CN(C(=O)c1ccccc1C(=O)O)CC2	-1	4	-82	5	-1	i	-21	-9
CN(C)c1ccc(/C=N/N(CCO)C2=NS(=O)(=O)c3ccccc32)cc1	-48	10	-3	?	?	i	·	-8
CC(C)c1nc2ccccc2n1CCC(=O)O	-4	3	-41	-10	-12	i	-13	-12
CCC(Cc1ccccc1)NCc1c(C(=O)O)c(C)n(Cc2ccccc2)c1C (stereo not given)	-2	-4	-19	-3	4	i	·	-10
Cc1ccc(NC(=O)C2CCN(S(=O)(=O)c3cnc[nH]3)CC2)nc1	0	4	·	-14	-3	i	0	-11
C(=NOCCc1ccccc1)c1ccncc1	-3	-3	1	·	·	·	-16	·
CN(CC(=O)Nc1ccc(Cl)c(C(F)(F)F)c1)C(=O)c1cccs1	3	-3	2	·	·	i	-8	-3
O=S(=O)(c1ccc2c(c1)OCCO2)N(Cc1ccc(F)cc1)Cc1nnc(-c2cccs2)o1	-2	1	-91	-2	-12	i	0	8
COc1cc(OC)cc(C(=O)O/N=C(\N)c2cccc(C)c2)c1	2	-2	-16	4	-8	i	-4	0
COc1ccc(-n2nnc3c(=O)n(CC(=O)Nc4cc(C)on4)cnc32)cc1OC	-1	0	12	4	3	i	·	-8
Cc1ccccc1C(=O)c1c[nH]c(C(=O)NCc2ccco2)c1	-1	-3	·	-2	-5	i	1	-8
O=C(Nc1ccc(Oc2ccc(NC(=O)c3ccco3)c(NC(=O)c3ccco3)c2)cc1)c1ccco1	1	1	·	-12	-12	i	-5	-12
Cc1ccc(C(=O)NCC(=O)NCC(c2ccco2)N2CCCCC2)cc1C (stereo not given)	0	0	-32	·	·	·	-4	·
SMILES	MT1-MMP act inh	MT1-MMP act inh RFP	HIV Env fusion	PABP polyA inh	eIF4H FP inh	Rce1 inhib	UUG fidelity	CSC inhib
Cc1cc(C(=O)C(=O)O)c(C)n1-c1ccc(Cl)cc1	0	6	0	?	?	i	-15	·
COc1ccc(/C=C/C(=O)OCC(=O)N2CC(=O)Nc3ccccc32)cc1S(=O)(=O)N1CCOCC1	1	1	17	-5	-2	i	0	3
COc1ccc(/C=C/C(=O)NCCCNC(=O)/C=C/c2ccc(OC)c(OC)c2)cc1OC	6	4	-2	·	·	i	19	·
CC/C(=N/Nc1ccccc1)c1cnnc(SC)n1	-2	5	·	1	6	i	-9	6
NS(=O)(=O)c1ccc(-c2cccc(/C=C3\SC(=O)NC3=O)c2)cc1	-4	-3	-197	17	13	i	-19	20
CC(=O)Nc1nn(CC(C)C)c2nc3ccc(C)cc3cc12	0	-3	3	·	·	·	-31	·
FC(F)c1nc2ccccc2[nH]1	-2	1	8	-1	-5	i	·	-12
Cn1c(=N)n(CC(=O)c2ccc(Cl)c(Cl)c2)c2ccccc21	-2	4	-55	5	-4	i	-55	8
Cc1oc2c(CN3CCC(C)CC3)c(O)ccc2c(=O)c1-c1ccccc1	0	1	2	2	2	?	8	-12
O=C(CCn1c(=O)[nH]c2ccccc2c1=O)NCCCN1CCN(c2cccc(Cl)c2)CC1	7	4	·	-6	-4	i	10	-4
CC(C)(C)OC(=O)N1CCCN(C(=O)Nc2ccc(C(F)(F)F)cc2)CC1	3	4	-2	-6	-10	i	-8	6
CCOC(=O)c1c(CN2CCOCC2)n(-c2ccccc2)c2cc(Br)c(OC)cc12	-19	-23	-5	-7	-10	i	-14	35
COc1cc(OC)c(OC)cc1/C=C/C(=O)c1ccc(NS(=O)(=O)c2ccc(C)cc2)cc1	-64	-8	1	15	?	i	-11	43
CCN(C(=O)CSc1nc2cc(C(=O)O)ccc2c(=O)n1Cc1ccccc1)c1ccccc1	-1	-3	12	0	-7	i	-12	-5
CC1(c2ccc3c(c2)OCO3)NC(=O)N(CC(=O)Nc2ccccc2)C1=O (stereo not given)	1	4	-17	·	·	·	-24	·
Cc1nn(C(=O)Cn2ccc([N+](=O)[O-])n2)c(C)c1Cl	-2	2	0	-2	-3	i	-16	-7
COc1ccc(CN2CCN(C(=O)c3ccc(S(=O)(=O)N4CCCCCC4)cc3)CC2)cc1F	-2	-30	50	·	·	·	-7	·
Cc1cc(C)cc(C(=O)OCC(=O)NC2CCCC2)c1	0	4	8	-6	2	i	16	-5
CCOC(=O)Cc1csc(NC(=O)CSc2nc(N)c3c(C)c(C)sc3n2)n1	16	8	-10	-2	-10	i	-19	2
Cn1c(CNC(=O)c2ccco2)nnc1SCC(=O)N1CCN(c2ccccc2F)CC1	2	1	6	3	0	i	-12	·
CCCCOC(=O)c1ccc(NC(=O)c2cnccn2)cc1	4	0	-10	-8	-3	i	-6	-10

A different layout for some results above:
canonical_smiles,MT1-MMP act inh,MT1-MMP act inh RFP,HIV Env fusion,PABP polyA inh,eIF4H FP inh,Rce1 inhib,UUG fidelity,CSC inhib
COc1ccc(/C=C/C(=O)NCCCNC(=O)/C=C/c2ccc(OC)c(OC)c2)cc1OC,6,4,-2,·,·,i,19,·
CCOC(=O)c1c(CN2CCOCC2)n(-c2ccccc2)c2cc(Br)c(OC)cc12,-19,-23,-5,-7,-10,i,-14,35
